Screening data: PubChem BioAssay, Broad Institute
AF4-AF9 inh – blocks AF4 peptide binding to human AF9; inhibition, % at 10 µM; AlphaScreen, biotin-AF4 peptide binding to FLAG-AF9; P42568; 350,000 tested, 0.47% active; AID 651704;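 active = every replicate reaching a set inhibition limit, whatever the replicate mean, cut at about 25% in these data; inconclusive = mean inhibition reaches that limit but some replicates miss it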;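 also: 0% = plate neutral control median and 100% = total signal loss; the record names both 10 and 1 µM as test concentration; the first replicate is given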
Target sequence (P42568 whole entry, looked up): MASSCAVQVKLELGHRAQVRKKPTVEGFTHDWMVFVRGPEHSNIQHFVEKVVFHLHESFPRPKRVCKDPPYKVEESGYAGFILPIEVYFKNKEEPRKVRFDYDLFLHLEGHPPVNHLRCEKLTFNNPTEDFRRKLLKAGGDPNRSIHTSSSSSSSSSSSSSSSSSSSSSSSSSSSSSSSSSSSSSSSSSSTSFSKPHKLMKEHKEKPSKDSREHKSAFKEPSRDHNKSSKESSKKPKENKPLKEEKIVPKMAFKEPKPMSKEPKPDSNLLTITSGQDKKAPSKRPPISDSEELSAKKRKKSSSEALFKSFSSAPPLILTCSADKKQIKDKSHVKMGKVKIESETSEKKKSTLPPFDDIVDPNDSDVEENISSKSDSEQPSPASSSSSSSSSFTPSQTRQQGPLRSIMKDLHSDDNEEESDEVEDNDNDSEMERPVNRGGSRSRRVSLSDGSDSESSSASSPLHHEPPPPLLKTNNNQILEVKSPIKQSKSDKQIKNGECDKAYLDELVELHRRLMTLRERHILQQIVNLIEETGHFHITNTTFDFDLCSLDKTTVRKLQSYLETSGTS
Calb FLC – affects C. albicans growth with fluconazole | C. albicans CaCi-2 (fluconazole-resistant clinical isolate) + fluconazole, Alamar Blue growth, 48 h | growth inhibition, % (concentration not given with the values) | 300,000 tested, 0.57% active;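 active = most replicates above 75%; inconclusive = exactly half above 75%; inactive = most below 75%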;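 also: all wells also contain fluconazole at 8 µg/ml as a sub-toxic cotreatment; 0% = median of DMSO wells and 100% = median of geldanamycin control wells; wells of about 8 µL received 7.5 nL stock; the first replicate is given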
RanGTP-Impb inh – disruptors of Ran-importin-beta complex formation – biochemical, FRET, CFP-Ran, YFP-importin-beta, homogeneous, primary screen | AID 2216 | cell-free CFP-Ran/YFP-importin-beta FRET ratio | inhibition, % (concentration not given with the values) | 300,000 tested, 1.1% active;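 active = most replicates above 15%; inconclusive = exactly half above 15%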;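 also: 0% = DMSO wells and 100% = Ran loaded with GDP instead of GTP; wells of about 40 µL received 100 nL stock; the first replicate is given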
Beta cell apopt – blocks beta cell apoptosis; INS-1E cytokine-induced death, ATP luminescence, 48 h; percent of positive-control rescue, neutral wells zero; protection from apoptosis, % (concentration not given with the values); 300,000 tested, 0.8% active;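 active = all replicates at 75% or more, or half of them and the mean; inconclusive = half reach 75% but not the mean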;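 also: 0% = cytokine-treated negative control wells and 100% = positive control rescue; higher means more ATP so stronger rescue from cytokine killing; wells of about 40 µL received 100 nL stock; the first replicate is given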
FGF22 binding – FGF22 (human) thermal shift binding; 340,000 tested, 1.5% active; calls only at 9.99 µM; Q9HCT0; AID 651658; recombinant FGF22 thermal shift, SYPRO orange fluorescence; percent of sucrose octasulfate shift, DMSO zero;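 active = melting point raised past a set limit in the mean and every replicate; inconclusive = no clear call; three in four hits are not shown here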
Target sequence (Q9HCT0 whole entry, looked up): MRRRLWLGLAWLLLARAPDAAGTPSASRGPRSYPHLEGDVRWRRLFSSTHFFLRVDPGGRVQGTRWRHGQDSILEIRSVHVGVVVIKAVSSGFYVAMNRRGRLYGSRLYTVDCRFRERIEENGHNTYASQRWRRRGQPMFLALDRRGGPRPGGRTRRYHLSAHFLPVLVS
T cruzi inh – T. cruzi replication inhibition; T. cruzi beta-gal in NIH3T3, luminescence, 90 h; inhibition, % (concentration not given with the values); 300,000 tested, 1.4% active; AID 1885;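 active = mean inhibition across valid replicates above about 55%, limit read from the data; inconclusive = mean below that limit but half or more replicates reach it; inactive = mean below it, under half of replicates reach it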;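 also: signal also drops with host cell toxicity which is not excluded here; 0% = plate median of DMSO wells and 100% = zero luminescence signal; higher percent means less beta-gal luminescence so fewer parasites; stock transfer was 50 nL into about 50 µL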
rRNA inh HTS – inhibits bacterial ribosomal RNA function over humanized ribosomes; GFP signal change (wild-type ribosome), % (test concentration not listed); 350,000 tested, 1.6% active; E. coli WT GFP vs humanized-ribosome RFP mutants, fluorescence, 24 h; active compounds read low; DMSO median 0, no signal -100;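 active = significant combined selectivity score with lowered wild-type GFP, culture density cut under 30%, mutant RFP and density less affected; inactive = any of these conditions unmet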; also: one replicate is shown; some compounds called inactive have numbers as strong as hits
ALR H2O2 inh – human ALR oxidase inhibition via reduced H2O2 | P55789 | inhibition, % (test concentration not listed) | AID 485317 | purified ALR, DTT oxidation, H2O2 HRP-luminol luminescence | 290,000 tested, 3.8% active;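 active = mean and each replicate at 75% or more; inconclusive = only one of the two met; inactive = neither met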;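 also: stock transfer was 7.5 nL into about 7.5 µL; 0% = neutral wells and 100% = wells with inactivated enzyme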
Target sequence (P55789 whole entry, looked up): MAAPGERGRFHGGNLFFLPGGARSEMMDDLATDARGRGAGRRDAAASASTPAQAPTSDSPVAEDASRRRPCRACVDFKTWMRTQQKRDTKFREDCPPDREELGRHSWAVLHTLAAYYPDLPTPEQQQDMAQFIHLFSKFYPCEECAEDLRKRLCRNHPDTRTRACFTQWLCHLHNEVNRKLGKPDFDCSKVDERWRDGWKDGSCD
rRNA inh HTS OD600 – recorded beside rRNA inh HTS, whose call it bears; OD600 change, %; measured here: OD600 growth;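 optical density of the mix in the first replicate; 0 = DMSO median and -100 = no signal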
rRNA inh HTS RFP – also measured in rRNA inh HTS; calls as there; RFP signal change, %; measured here: RFP humanized mutant strains;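 first replicate; 0 = DMSO median and -100 = no signal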
Numbers without * were called inactive; i = inactive; ? = inconclusive; nt = not tested or not shown.

SMILES	AF4-AF9 inh	Calb FLC	RanGTP-Impb inh	Beta cell apopt	FGF22 binding	T cruzi inh	rRNA inh HTS	rRNA inh HTS OD600	rRNA inh HTS RFP	ALR H2O2 inh
CCOC(=O)c1c(N2C(=O)Nc3ccccc3N2O)n[nH]c1-c1cccc(Cl)c1	-4.2	8	3.8	-4	i	0	-1	-6	-3.8	-4
Cc1cc(C)cc(NC(=S)NCc2cccs2)c1	-0.5	-12	-1.0	0	i	0	nt	nt	nt	32
COc1ccc(N2CCN(C(=O)NC(=O)c3ccc(Cl)cc3)CC2)cc1	-3.1	2	3.4	1	i	-2	3	-2	-2.6	6
Cc1ccc(C(=O)CSc2ccc(-c3cccnc3)nn2)cc1	-10	4	0.8	-9	i	-1	5	1	-8.6	-1
O=c1[nH]c(SCc2cccc(Cl)c2)nc2ccccc12	-0.4	-26	nt	-6	i	12	10	4	-1.4	-2
CCCN1C(=O)c2ccccc2NC1c1ccc(OC)cc1OC (centres undefined)	nt	2	-7.9	-2	nt	1	nt	nt	nt	2
CC(=O)N1CCN(S(=O)(=O)c2cccc(C(=O)NNC(=O)COc3ccc(F)cc3)c2)CC1	4.3	nt	nt	4	i	nt	2	5	0.1	-5
Cc1cc(Cl)ccc1NC(=S)NC(C)(C)C	-2.3	-8	?	3	i	-4	-35*	-24*	-7.4*	-2
O=C(Nc1ccc(C(=O)OC2CCCCC2)cc1)c1ccncc1	0.8	2	0.3	3	i	-11	-5	1	0.2	1
Cc1cc(=O)oc2cc(NC(=O)C(C)N3C(=O)C4CCCCC4C3=O)ccc12 (centres undefined)	-3.2	nt	nt	0	i	nt	11	16	1.4	nt
CC(=O)Nc1cccc(C(=O)NNC(=O)c2n[nH]c(=O)c3ccccc23)c1	-39	nt	nt	-5	i	nt	6	9	-0.4	-3
CCCCn1nc(C(=O)NCC2COc3ccccc3O2)c2ccccc2c1=O (centres undefined)	-0.9	nt	nt	3	i	nt	-36*	-25*	-7.0*	-30
N#C/C(=C\c1cccnc1)C(=O)Nc1ccc(S(N)(=O)=O)cc1	-5.0	-3	-0.1	-8	i	-14	11	9	1.7	?
Clc1ccsc1-c1ccc2ccccc2n1	nt	-31	-1.1	1	nt	13	nt	nt	nt	2
c1ccc(Cc2nnc3sc(-c4ccncc4)nn23)cc1	nt	1	0.2	-3	nt	8	nt	nt	nt	-4
Cc1sc2ncn(CC(=O)NCCCC(=O)N3CCN(c4ccccc4F)CC3)c(=O)c2c1C	0.0	6	-3.1	-2	i	9	4	-8	6.5	nt
COCCn1c(=NC(=O)c2nc3ccccc3s2)sc2cc(S(C)(=O)=O)ccc21	nt	-4	-2.2	30	nt	4	nt	nt	nt	-11
O=C(Nc1cccc(NC(=O)c2ccc(-c3ccc(Br)cc3)o2)c1)c1ccco1	nt	24	-4.0	-5	nt	58*	nt	nt	nt	-3
CCCCn1c(N)c(N(CC(C)C)C(=O)c2cc(-c3ccncc3)nc3ccccc23)c(=O)[nH]c1=O	4.5	4	-6.8	4	i	19	0	-1	0.1	0
COC(=O)c1ccc(C2C(Oc3ccccc3)C(=O)N2CCc2ccc(F)cc2)cc1 (centres undefined)	-4.8	12	-1.9	2	i	6	20	13	1.0	-4
COc1ccc(CNC2CCN(Cc3ccccc3)CC2)cc1	4.4	-1	?	4	i	27	12	6	1.9	-25
CC(C)OP(=O)(c1ccc(N(C)C)cc1)C(O)c1ccc(Br)cc1 (centres undefined)	0.6	29	-1.0	2	i	7	-2	-20	3.5	-6
CCCN1CC(=O)N2C(c3cccc(OC)c3OC)c3[nH]c4ccccc4c3C[C@H]2C1=O (some centres undefined)	3.8	29	-1.0	1	i	-7	-4	-9	0.5	-6
CCN1C(=O)c2cccc3c(N)ccc1c23	-4.4	21	-1.4	nt	i	15	46	-8	0.6	99*
COc1ccc(OC)c(NC(=O)NCCN2CCN(c3ccccc3)CC2)c1	5.4	-13	-15	3	i	-3	4	1	-4.5	?
CC1Cc2nc(SCC(=O)N3CCCC3)n(C)c(=O)c2S1 (centres undefined)	-5.0	4	?	-7	i	-15	2	11	-2.1	19
O=C(Nc1ccc(C(=O)N2CCC(O)(c3ccc(Cl)c(C(F)(F)F)c3)CC2)cc1)c1ccc(Br)o1	3.0	nt	nt	1	i	nt	2	-7	2.8	nt
CCCCN(C)CCOc1ccccc1OCC	nt	?	-1.2	-2	nt	8	nt	nt	nt	1
C=Cn1ccnc1P(=S)(c1ccc2c(c1)c1ccccc1n2CC)c1nccn1C=C	nt	-7	0.9	15	nt	21	nt	nt	nt	-1
CCOC(=O)c1c(-c2ccc(C)cc2)csc1NC(=O)CCSc1nnc2ccccn12	nt	6	2.5	7	nt	-8	nt	nt	nt	-4
CNC(=O)CSc1nnc(-c2cccnc2)n1CCc1ccccc1	nt	-17	2.6	6	nt	-6	nt	nt	nt	2
C/C(=N/NC(=O)CN1CCN(Cc2ccccc2Cl)CC1)c1ccncc1	-0.8	-20	5.7	3	i	-15	nt	nt	nt	-14
CC1CCN(S(=O)(=O)c2cccc(C(N)=O)c2)CC1	2.1	-10	-1.7	-11	i	-9	5	10	1.2	-8
CC1CCCCN1CCNC(=O)c1ccc2c(c1)N(Cc1ccccc1)C(=O)c1ccccc1S2(=O)=O (centres undefined)	9.2	-14	0.2	nt	i	21	5	2	4.8	-23
CC(/C=N/NC(=O)CSc1nc2ccccc2n1C)=C\c1ccco1	nt	-2	1.8	-2	nt	-10	nt	nt	nt	-11
CNCCC(Oc1ccc(C(F)(F)F)cc1)c1ccccc1 (centres undefined)	0.7	nt	1.0	10	i	15	nt	nt	nt	-5
CCn1c(CC(=O)Nc2ccccc2)n[nH]c1=S	-2.9	6	-0.5	1	i	0	11	0	-0.3	21
CCN1C(=O)C2(C(C#N)=C(N)Oc3cc(C)oc(=O)c32)c2ccccc21 (centres undefined)	nt	-5	-0.4	-3	nt	3	nt	nt	nt	-1
COc1ccc(Cl)cc1NC(=O)COC(=O)C(CC(C)C)N1C(=O)C2CC=CCC2C1=O (centres undefined)	-3.6	29	0.8	nt	i	-19	nt	nt	nt	-2
CC1(C)C(=O)Nc2ccccc2N1C(=O)COc1ncnc2c(Cl)cc(Cl)cc12	nt	2	9.4	2	nt	-7	nt	nt	nt	-16
CCOCCCNC(=O)CCCn1nc(C)n2c(cc3sccc32)c1=O	0.7	1	0.2	4	i	4	0	9	1.6	nt
CCOC(=O)C1CCN(C(=O)C2CCN(S(=O)(=O)c3cc(Cl)ccc3Cl)CC2)CC1	nt	-12	?	-1	nt	-9	nt	nt	nt	-8
COc1cccc(C2c3[nH]c4ccccc4c3C[C@H]3C(=O)N(CCCO)CC(=O)N23)c1OC (some centres undefined)	7.5	11	-2.6	-4	i	4	2	0	-3.2	27
O=C(NCCN1CCCCC1)Nc1ccccc1Cl	-0.6	-1	5.2	-1	i	-3	18	8	1.0	-2
COC(=O)c1c(-c2snnc2C)n[nH]c1C	-0.7	-2	2.0	-1	i	-6	nt	nt	nt	-6
Cc1cc(C)cc(N(C(=O)CCC(=O)Nc2ccccn2)C(C(=O)NC(C)C)c2ccc(O)cc2)c1 (centres undefined)	nt	13	-1.6	-1	nt	8	nt	nt	nt	nt
CN1CCN(CC(=O)c2ccccc2F)CC1	6.9	0	6.2	-4	i	-9	13	11	-1.9	nt
CC(C)(CO)CN1CCC(n2nccc2NC(=O)C2CCCC2)CC1	-5.9	-4	9.6	nt	i	-6	4	-3	-3.3	-1
COc1cc2ncnc(NCc3ccco3)c2cc1OC	2.5	35	?	-2	i	8	8	1	-3.0	-4
Nc1ncnc2nc(SCC(=O)Nc3ccccc3F)[nH]c12	-1.9	-6	-0.3	-5	i	-15	-1	4	0.0	nt
Cc1oc(-c2ccccc2Cl)nc1CS(=O)CC(=O)NCCc1ccccc1 (centres undefined)	-0.7	-1	-1.2	-3	i	20	-20	-11	6.1	99*
COc1ccc(C(=O)N/N=C(\C)Cn2cnc([N+](=O)[O-])n2)cc1	0.7	17	-2.4	11	i	56*	5	16	3.2	nt
COC(=O)N/N=C/c1cccnc1	nt	-5	0.3	3	nt	0	nt	nt	nt	-3
S=c1nc2ccccc2c2nc(-c3ccccc3Br)[nH]n12	-5.8	39	4.8	26	i	13	0	8	0.4	nt
COC(=O)c1ccc2[nH]c([C@H](C)O)c([C@H](C)O)c2c1	-2.4	-2	0.2	-1	i	1	7	6	2.3	nt
Cc1ccnc(SC2CC(=O)N(c3ccc(F)cc3)C2=O)n1 (centres undefined)	0.2	-5	-0.7	-7	i	-1	5	0	-2.1	0
Cn1c(NCCO)nc2c1c(=O)n(Cc1ccc(F)cc1)c(=O)n2C	1.3	0	2.0	-4	i	3	5	8	2.9	4
O=C(Nc1ccc2ccccc2c1)c1ccccc1O	-0.8	5	0.1	nt	i	-15	-40	-52	-0.8	-1
Cc1cc(=O)oc2c(C(=O)/C=C/c3ccccc3)c(O)ccc12	nt	5	3.3	3	nt	-2	nt	nt	nt	-9
N#CCc1nn(-c2ccc(Cl)cc2)c(N)c1C#N	nt	2	?	0	nt	-8	nt	nt	nt	nt

The list continues:
SMILES	AF4-AF9 inh	Calb FLC	RanGTP-Impb inh	Beta cell apopt	FGF22 binding	T cruzi inh	rRNA inh HTS	rRNA inh HTS OD600	rRNA inh HTS RFP	ALR H2O2 inh
O=c1c(-c2ccccc2)c(O)c2c(n1-c1ccccc1)CCCC2	nt	-11	-3.3	-9	nt	-7	nt	nt	nt	11
O=C(Nc1ccc(NC(=S)NC(=O)C(c2ccccc2)c2ccccc2)cc1)c1ccccc1	nt	11	0.8	36	nt	28	nt	nt	nt	-7
Fc1ccc2cnc(-c3ccccc3)cc2c1	-4.4	nt	nt	-5	i	nt	1	15	-3.5	nt
CCC(C(=O)NCc1ccco1)n1nc(C)c2c(C)n(-c3ccc(C)cc3)nc2c1=O (centres undefined)	3.1	2	4.5	3	i	-5	5	14	-0.9	-19
CC1(C)CC(=O)C=C(Nc2cccc(F)c2)C1	1.0	-1	28*	-3	i	0	6	0	0.5	-31
NC(N)=N/N=C/c1ccc(OCc2ccccc2Cl)cc1	14	-4	2.9	8	i	69*	-58	-81	-28	0
CCC1Cc2c(nc(N)c3c(N)nc(N4CCCCC4)c(C#N)c23)O1 (centres undefined)	-8.2	-2	3.8	2	i	20	-16	-34	5.7	-123
CCc1ccc(N2Cc3ccccc3C2)cc1	5.3	-11	-2.8	5	i	24	1	-3	-2.9	-14
CC(=O)C(C)Oc1ccc2c3c(c(=O)oc2c1)CCCC3 (centres undefined)	nt	-15	0.4	-3	nt	1	nt	nt	nt	-13
O=C(Cn1nc(Cl)nc1Cl)c1ccc(F)cc1	-2.3	2	1.5	-2	i	4	7	6	-1.5	-6
Cc1cc(C)c(S(=O)(=O)N2CCCOC2CNC(=O)C(=O)NCCC2=CCCCC2)c(C)c1 (centres undefined)	nt	12	-1.1	nt	nt	10	nt	nt	nt	2

Some of the compounds tested; the hit share may differ from the screen's.
